Calb FLC = affects C. albicans growth with fluconazole. growth inhibition, % (no concentration beside the values). C. albicans CaCi-2 (fluconazole-resistant clinical isolate) + fluconazole, Alamar Blue growth, 48 h. 0.57% of 300,000 active;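 active = most replicates above 75%; inconclusive = exactly half above 75%; inactive = most below 75%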;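 also: all wells also contain fluconazole at 8 µg/ml as a sub-toxic cotreatment; 0% = median of DMSO wells and 100% = median of geldanamycin control wells; wells of about 8 µL received 7.5 nL stock; the first replicate is given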
Beta cell apopt = beta cell apoptosis inhibition. protection from apoptosis, % (no concentration beside the values). 0.8% of 300,000 active. INS-1E cytokine-induced death, ATP luminescence, 48 h; percent of positive-control rescue, neutral wells zero;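 active = all replicates at 75% or more, or half of them and the mean; inconclusive = half reach 75% but not the mean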;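 also: 0% = cytokine-treated negative control wells and 100% = positive control rescue; higher means more ATP so stronger rescue from cytokine killing; wells of about 40 µL received 100 nL stock; the first replicate is given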
T cruzi inh = blocks replication of Trypanosoma cruzi; T. cruzi beta-gal in NIH3T3, luminescence, 90 h; inhibition, % (test concentration not listed); 1.4% of 300,000 active;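 active = mean inhibition across valid replicates above about 55%, limit read from the data; inconclusive = mean below that limit but half or more replicates reach it; inactive = mean below it, under half of replicates reach it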;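 also: signal also drops with host cell toxicity which is not excluded here; 0% = plate median of DMSO wells and 100% = zero luminescence signal; higher percent means less beta-gal luminescence so fewer parasites; stock transfer was 50 nL into about 50 µL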
FGF22 binding = shifts melting point of recombinant human FGF22 | recombinant FGF22 thermal shift, SYPRO orange fluorescence; percent of sucrose octasulfate shift, DMSO zero | 1.5% of 340,000 active | calls only at 9.99 µM;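 active = melting point raised past a set limit in the mean and every replicate; inconclusive = no clear call; three in four hits are not shown here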
Target sequence (Q9HCT0 whole entry, looked up): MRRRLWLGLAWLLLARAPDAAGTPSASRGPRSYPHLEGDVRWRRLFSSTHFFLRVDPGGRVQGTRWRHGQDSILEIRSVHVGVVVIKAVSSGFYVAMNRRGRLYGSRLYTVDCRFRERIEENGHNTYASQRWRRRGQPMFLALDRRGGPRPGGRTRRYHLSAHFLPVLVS
rRNA inh HTS = inhibitors of bacterial rRNA selective over humanized ribosomes; AID 720706; GFP signal change (wild-type ribosome), % (no concentration beside the values); E. coli WT GFP vs humanized-ribosome RFP mutants, fluorescence, 24 h; hits give low values; DMSO median 0, no signal -100; 1.6% of 350,000 active;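 active = significant combined selectivity score with lowered wild-type GFP, culture density cut under 30%, mutant RFP and density less affected; inactive = any of these conditions unmet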; also: one replicate is shown; some compounds called inactive have numbers as strong as hits
ALR inh = human ALR oxidase inhibition via reduced H2O2. P55789. purified ALR, DTT oxidation, H2O2 HRP-luminol luminescence. inhibition, % (test concentration not listed). 3.8% of 290,000 active;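 active = mean and each replicate at 75% or more; inconclusive = only one of the two met; inactive = neither met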;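 also: stock transfer was 7.5 nL into about 7.5 µL; 0% = neutral wells and 100% = wells with inactivated enzyme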
Target sequence (P55789 whole entry, looked up): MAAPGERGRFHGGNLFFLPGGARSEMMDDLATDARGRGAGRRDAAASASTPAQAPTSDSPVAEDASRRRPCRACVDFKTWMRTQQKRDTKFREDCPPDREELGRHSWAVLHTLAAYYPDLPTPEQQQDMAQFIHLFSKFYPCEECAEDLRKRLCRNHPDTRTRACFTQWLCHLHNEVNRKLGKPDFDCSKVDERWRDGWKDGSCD
RanGTP-Impb inh = disruptors of Ran-importin-beta complex formation – biochemical, FRET, CFP-Ran, YFP-importin-beta, homogeneous, primary screen | cell-free CFP-Ran/YFP-importin-beta FRET ratio | inhibition, % (test concentration not listed) | 1.1% of 300,000 active;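 active = most replicates above 15%; inconclusive = exactly half above 15%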;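 also: 0% = DMSO wells and 100% = Ran loaded with GDP instead of GTP; wells of about 40 µL received 100 nL stock; the first replicate is given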
MLL AF4-AF9 inh = MLL-AF4/AF9 protein interaction inhibition; inhibition, % at 10 µM; 0.47% of 350,000 active; AID 651704; P42568; AlphaScreen, biotin-AF4 peptide binding to FLAG-AF9;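 active = every replicate reaching a set inhibition limit, whatever the replicate mean, cut at about 25% in these data; inconclusive = mean inhibition reaches that limit but some replicates miss it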;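 also: 0% = plate neutral control median and 100% = total signal loss; the record names both 10 and 1 µM as test concentration; the first replicate is given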
Target sequence (P42568 whole entry, looked up): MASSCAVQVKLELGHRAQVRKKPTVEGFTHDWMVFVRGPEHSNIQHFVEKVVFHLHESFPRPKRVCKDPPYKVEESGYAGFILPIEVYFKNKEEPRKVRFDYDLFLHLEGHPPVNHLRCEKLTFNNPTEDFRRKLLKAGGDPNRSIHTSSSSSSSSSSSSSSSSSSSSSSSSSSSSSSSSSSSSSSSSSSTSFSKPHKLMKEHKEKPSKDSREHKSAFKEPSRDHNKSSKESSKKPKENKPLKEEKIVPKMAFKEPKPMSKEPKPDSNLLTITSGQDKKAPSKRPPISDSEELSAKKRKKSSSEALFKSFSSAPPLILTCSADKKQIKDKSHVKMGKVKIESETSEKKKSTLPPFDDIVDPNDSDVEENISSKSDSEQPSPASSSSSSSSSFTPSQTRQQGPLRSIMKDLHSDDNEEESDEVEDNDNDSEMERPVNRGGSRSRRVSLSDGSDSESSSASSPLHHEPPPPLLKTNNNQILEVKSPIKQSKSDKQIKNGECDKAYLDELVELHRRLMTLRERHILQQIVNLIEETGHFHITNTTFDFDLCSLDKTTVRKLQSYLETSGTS
rRNA inh HTS OD600 = further read-out of rRNA inh HTS, marked with its call; OD600 change, %; measured here: OD600 growth;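 optical density of the mix in the first replicate; 0 = DMSO median and -100 = no signal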
rRNA inh HTS RFP = further read-out of rRNA inh HTS, marked with its call; RFP signal change, %; measured here: RFP humanized mutant strains;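 first replicate; 0 = DMSO median and -100 = no signal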
Numbers without * were called inactive; i = inactive; ? = inconclusive; / = no result given.

Order of values: Calb FLC, Beta cell apopt, T cruzi inh, FGF22 binding, rRNA inh HTS, rRNA inh HTS OD600, rRNA inh HTS RFP, ALR inh, RanGTP-Impb inh, MLL AF4-AF9 inh
COc1ccc(S(=O)(=O)N(C)CC(=O)NC2CC2)cc1
→ ?, 3.6, -10.8, /, /, /, /, -6.3, -1.3, /
O=C(Nc1ccc(-c2csc(Nc3ccc(Cl)cc3)n2)cc1)c1cccc(C(F)(F)F)c1
→ 2.0, 12.4, 67.9*, i, -4.7, -14.8, 7.9, 7.8, ?, 0.8
NC(=O)c1oc2ccc(Cl)cc2c1NC(=O)CN1CCOCC1
→ 7.1, -0.1, 16.6, /, /, /, /, 4.3, -3.3, /
COc1cc(C(=S)N2CCOCC2)cc(OC)c1OC(=O)c1cccc(C)c1
→ -3.5, 3.1, 2.9, i, -20.3, -19.3, -3.0, -1.1, -0.5, 15.5
O=C(CSc1ncccn1)NCc1ccc(Cl)cc1
→ -13.4, -5.9, 5.0, i, -0.8, 5.0, -1.4, -2.7, -5.4, -2.3
COC(=O)N/N=C\c1c(C)nn(-c2ccccc2)c1Cl
→ 19.9, -6.6, -11.6, /, /, /, /, -1.9, -0.2, /
Cc1ccsc1/C=N/n1c(=S)[nH]nc(C)c1=O
→ -2.2, 6.1, -7.4, /, /, /, /, /, 1.9, /
COC(=O)c1cc2occc2n1Cc1ccc(Cl)cc1
→ -23.2, -4.7, 9.8, /, /, /, /, 2.1, 1.3, /
C1CCCCCC(=NNc2nn[nH]n2)CCCCC1
→ -2.6, -4.0, -12.0, i, 20.3, 21.1, 0.4, -5.1, -1.0, -2.7
CCn1c(C)c(C)c2cc(C(=O)N3CCN(c4ccccc4)CC3)ccc21
→ 19.4, -3.8, 12.3, i, -36.0, -67.5, 13.6, -8.5, 6.0, 2.1
O=C(NCC(c1cccs1)N1CCc2ccccc21)c1ccccc1 (centres undefined)
→ 3.0, 15.1, -0.3, /, -0.1, 1.1, 2.2, 45.1, 1.5, -0.7
CCOC(=O)c1ccc(NS(=O)(=O)c2c(N)n(C)c(=O)n(C)c2=O)cc1
→ 2.8, 3.1, -20.7, /, /, /, /, 7.5, ?, /
O=C(C1CCN(S(=O)(=O)c2cccc([N+](=O)[O-])c2)CC1)N1CCOCC1
→ 4.0, 2.3, -28.9, i, 13.8, 15.3, -0.8, -15.5, ?, -1.5
CC(C(=O)N1CCN(Cc2ccccc2)CC1)c1ccc([N+](=O)[O-])cc1 (centres undefined)
→ -23.4, 2.4, 2.2, i, 3.0, -0.9, -4.7, -3.6, -0.1, -15.6
Cc1nc(C)n(C)c(=O)c1-c1ccccc1
→ 4.0, -4.4, -3.6, i, 21.2, 19.1, 3.6, -7.1, 4.4, -1.7
O=C1CC(c2ccc(F)cc2)Cc2nc(N3CCN(c4ccccc4)CC3)ncc21 (centres undefined)
→ -0.7, -4.1, -35.1, /, /, /, /, /, -0.5, /
O=C(CCCCn1c(=O)c2ccccc2n(Cc2ccc(F)cc2Cl)c1=O)NCc1ccco1
→ -0.2, -4.0, 23.1, /, /, /, /, -3.3, 3.0, /
COCC(C)NC(=O)c1cc(-c2ccc(O)cc2)on1 (centres undefined)
→ -3.5, -0.7, -1.5, i, -7.3, -8.2, -1.5, 99.2*, 5.0, -5.4
CCOc1ccc(NC(=O)c2ccc(NC(=O)COC(=O)Cc3ccc(OC)cc3)cc2)cc1
→ 14.1, 5.9, -17.0, i, 9.8, 3.9, 3.7, -4.0, 0.9, -0.8
CC(Cc1ccccc1)C(=O)NCc1ccccn1 (centres undefined)
→ -8.0, -10.3, -12.7, i, 11.2, 7.2, -0.8, /, 0.0, -3.8
CN(C)CCNCc1ccccc1OC1CCCC1
→ -8.6, 2.0, -11.0, /, /, /, /, -0.6, 0.2, /
CC(=O)Cc1nsc(NC(=O)c2ccc(-c3ccccc3Cl)o2)n1
→ -12.2, 8.3, 12.0, /, /, /, /, 17.2, 3.3, /
CCN(CC)C(=O)C(=O)N/N=C/c1cccc(Br)c1
→ -2.9, -4.8, -26.8, /, /, /, /, -2.2, -1.3, /
COc1cccc(OC)c1C(=O)Nc1cccc(C(C)=O)c1
→ 48.1, -1.2, 7.5, /, /, /, /, /, -0.8, /
CC12CCC(C(=O)N3CCN(C(c4ccccc4)c4ccccc4)CC3)(OC1=O)C2(C)C (centres undefined)
→ 9.6, -2.8, 55.9*, /, /, /, /, -2.3, -1.9, /
Cc1cccc(NC(=O)CCC(=O)Nc2nnc(C(F)(F)F)s2)c1
→ -2.0, -6.7, -15.2, i, 0.7, 7.7, -0.5, -1.1, 3.5, 3.0
CCCCNC(=S)N1CCN(c2nc3ccccc3s2)CC1
→ 35.3, -1.9, 8.5, i, -9.7, -2.4, -8.3, -0.1, 2.8, -2.4
COc1ccc(C(=O)Nc2cccc(C(=O)O)c2)cc1S(=O)(=O)N1CCCC1
→ -1.4, -3.5, -7.8, i, 10.1, 18.2, -3.5, 8.0, 0.0, -2.1
CC(=O)c1c(C)[nH]c(C(=O)Nc2ccc(F)cc2F)c1C
→ 11.5, -6.8, 4.9, i, -5.1, -10.6, -1.5, /, -1.2, 1.1
CSc1nsc(SC)c1C(=O)Nc1ccc(C)cc1
→ 1.9, -7.7, -14.7, /, /, /, /, 51.5, 5.3, /
CCCCCn1c(Sc2ncccn2)nc2c1c(=O)[nH]c(=O)n2C
→ -0.7, -4.5, -15.2, /, /, /, /, 0.1, -2.1, /
COc1cnn(C(C)(C)C)c(=O)c1Cl
→ -8.7, -3.0, -6.0, /, /, /, /, -18.9, 0.8, /
COc1ccc(N2CCN(C(CNC(=O)C(C)(C)C)c3cccnc3)CC2)cc1 (centres undefined)
→ 3.3, -4.3, 22.1, i, 12.4, 6.2, 3.3, ?, -2.3, 1.1
Cc1nc(SCC#N)c2c(C)c(C)sc2n1
→ 0.3, -0.7, -9.4, /, /, /, /, -7.8, 2.6, /
CCOC(=O)CNC(=S)n1ncnc1N
→ -2.7, -4.0, -28.5, i, 6.9, 13.7, -0.7, 2.2, ?, 0.7
COC(=O)/C=C/C(=O)Nc1cccc(C(F)(F)F)c1
→ 5.3, -57.1, -21.6, i, 14.9, 15.8, 2.5, 15.1, -3.8, 5.7
C/C=C/c1ccc(OCC(=O)Nc2cc(OC)c(OC)c(OC)c2)c(OC)c1
→ 5.8, 11.2, 3.3, i, -1.6, 1.5, -2.2, -39.4, 3.8, 2.1
CC1CCCc2sc3nc(N4CCN(CCO)CC4)n4ncnc4c3c21 (centres undefined)
→ 55.3, /, 16.5, /, /, /, /, 56.4, 5.6, /
NNC(=O)c1ccc(COc2ccc3ccccc3c2)o1
→ 4.2, 6.7, 2.9, i, -24.6*, -0.5*, 2.7*, -47.2, -3.1, /
CC(C#N)Sc1nc2ccccc2c(=O)n1-c1ccccc1 (centres undefined)
→ 0.7, -4.8, -3.8, i, -22.4*, -7.4*, -1.5*, -14.5, ?, -44.9
CCCCOc1ccc(C(=O)N/C(=C\c2cccc([N+](=O)[O-])c2)C(=O)OCc2ccco2)cc1
→ 7.4, 1.7, -2.0, i, 8.0, 13.9, -0.6, -11.3, 1.6, -1.1
CC(C)=C(NC(=O)c1ccccc1)C(=O)N1CCOCC1
→ 1.5, -10.5, -26.2, i, 10.4, 6.2, -1.7, -3.9, 0.4, -2.0
CC(C)/C=N/Nc1nc2c(c(=O)n(C)c(=O)n2C)n1C
→ -8.0, /, -7.3, i, 28.1, 4.8, 2.7, 7.8, -4.6, 5.9
CS(=O)(=O)N1CCC(C(=O)N2CCN(C(c3ccccc3)c3ccccc3)CC2)CC1
→ -2.7, 4.8, -2.0, i, -6.1, -12.2, 0.8, 3.1, 2.0, 0.1
O=C(NC(=S)Nc1ccc(S(=O)(=O)Nc2nccs2)cc1)c1ccccc1F
→ 26.3, 2.1, -2.7, i, -21.6*, -11.8*, -3.2*, 1.0, 4.3, -2.9
Cc1cccc(-n2c(C)cc(/C=N/NC(=O)c3cccc([N+](=O)[O-])c3C)c2C)c1
→ 33.9, 9.9, 23.5, /, /, /, /, -7.8, 4.1, /
COc1ccc(-n2ccc(-c3nn(-c4cccc(C(F)(F)F)c4)ccc3=O)n2)cc1
→ -0.4, -11.3, 15.3, /, /, /, /, -33.0, -1.2, /
O=C(Nc1nc2ccc(Cl)cc2s1)c1ccc(Br)o1
→ 13.2, 14.4, -1.4, /, /, /, /, 2.9, -1.4, /
O=C(O)c1cc(Cl)ccc1NC(=O)C1CCCO1 (centres undefined)
→ -4.6, -0.5, -2.0, i, -2.7, 3.2, 1.4, -0.8, 5.3, -20.9
CCN(C(=S)Nc1ccc(OC(F)F)cc1)C1CCCCC1
→ 15.8, -1.9, -5.0, i, -38.7, -63.3, 6.2, -2.1, 2.6, 0.8
O=C(N1CCN(c2ccccc2)CC1)C1(S(=O)(=O)c2ccc(Cl)cc2)CC1
→ -6.5, 0.4, 8.3, i, -6.5, -7.5, -1.6, /, -1.8, 2.5
CNc1sc(C(=O)c2ccc(F)cc2)c(N)c1-c1nc2ccccc2s1
→ 24.8, 14.4, -24.5, /, /, /, /, 90.7*, -0.3, /
Cc1ccccc1NC(=O)c1ccc(CSc2ncccn2)cc1
→ 11.2, -12.4, -15.2, i, -22.3, -35.4, -21.0, 67.0, 0.2, -10.6
O=C(Nc1ccc(N2CCOCC2)cc1N1CCOCC1)c1ccco1
→ 44.8, -2.1, -4.2, /, /, /, /, /, 1.4, /
O=C(O)C1CC=C(Cl)CC1C(=O)NCc1ccccc1 (centres undefined)
→ -3.6, -6.3, -9.2, /, /, /, /, 40.6, 1.1, /
COc1ccc(C(=O)N2c3ccccc3C(=O)OC2c2ccc3c(c2)OCO3)cc1 (centres undefined)
→ -1.2, 11.1, 7.2, /, /, /, /, 2.9, 0.8, /
O=C(c1cc(N2C(=O)C3C4CCC(C4)C3C2=O)ccc1Cl)N1CCN(c2ccccc2)CC1 (centres undefined)
→ -0.5, 8.3, -12.6, /, /, /, /, 6.0, ?, /
CC(=O)Nc1ccc(NC(=O)CCC(=O)NCCO)cc1
→ 12.2, 2.3, -7.8, i, 16.6, 5.1, -6.0, -3.6, -1.5, 1.4
CCN(C(=O)CN1C(=O)c2ccc([N+](=O)[O-])cc2C1=O)C1CCS(=O)(=O)C1 (centres undefined)
→ -2.9, -4.8, -7.3, i, 14.2, 15.8, 2.0, -29.9, 3.1, -9.2
CCC1CN(C(=O)NCc2ccc(C)cc2)c2cc(Cl)ccc2O1 (centres undefined)
→ -0.4, 3.8, 14.5, i, 6.2, 6.0, -5.1, -2.8, 3.8, 1.3
CC[C@@H](C)[C@@H](C(=O)N1CCN(C(=O)OC(C)(C)C)CC1)n1cc(CCCN=C(NC(=O)OC(C)(C)C)NC(=O)OC(C)(C)C)nn1
→ -6.8, -6.4, 3.5, i, 5.2, 7.9, -0.6, -11.1, -1.1, /
Cc1ccnc(N2CCC(C(=O)Nc3ccc4c(c3)OCCO4)CC2)n1
→ -14.4, 2.4, 4.9, i, 2.1, 2.9, 1.4, -9.1, ?, -5.2

Bioassay records as filed in PubChem BioAssay.

Not all compounds are listed (hit frequency here may not be typical).
